ALR inh – inhibitors of human sulfhydryl oxidase ALR | inhibition, % (concentration not given with the values) | AID 485317 | actives 3.8% (n = 290,000) | purified ALR, DTT oxidation, H2O2 HRP-luminol luminescence | P55789;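 active means mean and each replicate at 75% or more; inconclusive means only one of the two met; inactive means neither met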;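 further: stock transfer was 7.5 nL into about 7.5 µL; 0% = neutral wells and 100% = wells with inactivated enzyme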
Target sequence (P55789 whole entry, looked up): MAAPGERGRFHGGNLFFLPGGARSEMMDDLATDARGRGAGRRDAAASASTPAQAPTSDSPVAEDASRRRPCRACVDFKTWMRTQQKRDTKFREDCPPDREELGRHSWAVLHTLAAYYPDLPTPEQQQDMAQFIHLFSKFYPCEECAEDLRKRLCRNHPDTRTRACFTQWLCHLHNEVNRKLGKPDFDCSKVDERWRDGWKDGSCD
Ecoli rRNA inh – inhibits bacterial ribosomal RNA function over humanized ribosomes; E. coli WT GFP vs humanized-ribosome RFP mutants, fluorescence, 24 h; active compounds read low; DMSO median 0, no signal -100; GFP signal change (wild-type ribosome), % (concentration not given with the values); actives 1.6% (n = 350,000); AID 720706;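 active means significant combined selectivity score with lowered wild-type GFP, culture density cut under 30%, mutant RFP and density less affected; inactive means any of these conditions unmet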; further: one replicate is shown; some compounds called inactive have numbers as strong as hits
MLL AF4-AF9 inh – blocks AF4 peptide binding to human AF9; P42568; AlphaScreen, biotin-AF4 peptide binding to FLAG-AF9; inhibition, % at 10 µM; actives 0.47% (n = 350,000);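 active means every replicate reaching a set inhibition limit, whatever the replicate mean, cut at about 25% in these data; inconclusive means mean inhibition reaches that limit but some replicates miss it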;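 further: 0% = plate neutral control median and 100% = total signal loss; the record names both 10 and 1 µM as test concentration; the first replicate is given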
Target sequence (P42568 whole entry, looked up): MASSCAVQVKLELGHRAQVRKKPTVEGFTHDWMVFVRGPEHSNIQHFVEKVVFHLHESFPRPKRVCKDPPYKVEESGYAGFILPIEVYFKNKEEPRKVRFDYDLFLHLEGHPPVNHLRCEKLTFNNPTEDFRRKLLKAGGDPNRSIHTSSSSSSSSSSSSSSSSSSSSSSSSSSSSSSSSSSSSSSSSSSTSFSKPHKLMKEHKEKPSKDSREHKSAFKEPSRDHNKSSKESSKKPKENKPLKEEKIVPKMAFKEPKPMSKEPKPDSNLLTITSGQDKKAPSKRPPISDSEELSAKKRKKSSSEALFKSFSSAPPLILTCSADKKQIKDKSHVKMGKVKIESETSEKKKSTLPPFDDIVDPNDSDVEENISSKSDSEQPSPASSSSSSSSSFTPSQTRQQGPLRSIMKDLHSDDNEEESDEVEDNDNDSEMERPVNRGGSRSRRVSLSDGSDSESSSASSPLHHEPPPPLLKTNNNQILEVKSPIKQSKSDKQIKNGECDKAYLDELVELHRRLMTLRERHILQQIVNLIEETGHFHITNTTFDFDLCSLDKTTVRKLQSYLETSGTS
FGF22 binding – FGF22 (human) thermal shift binding. AID 651658. calls only at 9.99 µM. Q9HCT0. actives 1.5% (n = 340,000). recombinant FGF22 thermal shift, SYPRO orange fluorescence; percent of sucrose octasulfate shift, DMSO zero;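 active means melting point raised past a set limit in the mean and every replicate; inconclusive means no clear call; three in four hits are not shown here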
Target sequence (Q9HCT0 whole entry, looked up): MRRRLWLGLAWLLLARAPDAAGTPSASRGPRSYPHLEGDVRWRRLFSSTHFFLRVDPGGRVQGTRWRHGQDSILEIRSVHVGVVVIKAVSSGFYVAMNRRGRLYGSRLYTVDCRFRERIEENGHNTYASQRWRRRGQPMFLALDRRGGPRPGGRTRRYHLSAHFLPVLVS
RanGTP-Impb inh – disruptors of Ran-importin-beta complex formation – biochemical, FRET, CFP-Ran, YFP-importin-beta, homogeneous, primary screen | cell-free CFP-Ran/YFP-importin-beta FRET ratio | inhibition, % (concentration not given with the values) | actives 1.1% (n = 300,000) | AID 2216;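 active means most replicates above 15%; inconclusive means exactly half above 15%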;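 further: 0% = DMSO wells and 100% = Ran loaded with GDP instead of GTP; wells of about 40 µL received 100 nL stock; the first replicate is given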
T cruzi inh – blocks replication of Trypanosoma cruzi | AID 1885 | actives 1.4% (n = 300,000) | inhibition, % (test concentration not listed) | T. cruzi beta-gal in NIH3T3, luminescence, 90 h;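 active means mean inhibition across valid replicates above about 55%, limit read from the data; inconclusive means mean below that limit but half or more replicates reach it; inactive means mean below it, under half of replicates reach it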;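 further: signal also drops with host cell toxicity which is not excluded here; 0% = plate median of DMSO wells and 100% = zero luminescence signal; higher percent means less beta-gal luminescence so fewer parasites; stock transfer was 50 nL into about 50 µL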
Beta cell apopt – beta cell apoptosis inhibition. INS-1E cytokine-induced death, ATP luminescence, 48 h; percent of positive-control rescue, neutral wells zero. protection from apoptosis, % (no concentration beside the values). actives 0.8% (n = 300,000). AID 435005;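 active means all replicates at 75% or more, or half of them and the mean; inconclusive means half reach 75% but not the mean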;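 further: 0% = cytokine-treated negative control wells and 100% = positive control rescue; higher means more ATP so stronger rescue from cytokine killing; wells of about 40 µL received 100 nL stock; the first replicate is given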
Calb FLC – C. albicans growth modulation with fluconazole. C. albicans CaCi-2 (fluconazole-resistant clinical isolate) + fluconazole, Alamar Blue growth, 48 h. growth inhibition, % (concentration not given with the values). actives 0.57% (n = 300,000). AID 1979;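 active means most replicates above 75%; inconclusive means exactly half above 75%; inactive means most below 75%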;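 further: all wells also contain fluconazole at 8 µg/ml as a sub-toxic cotreatment; 0% = median of DMSO wells and 100% = median of geldanamycin control wells; wells of about 8 µL received 7.5 nL stock; the first replicate is given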
Ecoli rRNA inh OD600 – further read-out of Ecoli rRNA inh, marked with its call; OD600 change, %; measured here: OD600 growth;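 optical density of the mix in the first replicate; 0 = DMSO median and -100 = no signal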
Ecoli rRNA inh RFP – second read-out of Ecoli rRNA inh, no call of its own (marks repeat the call); RFP signal change, %; measured here: RFP humanized mutant strains;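 first replicate; 0 = DMSO median and -100 = no signal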
Active calls of the source: *; i = inactive; ? = inconclusive; / = not tested or not shown; & = joins results of further samples. Not all compounds are listed, so the mix of outcomes need not match the whole.

SMILES | ALR inh | Ecoli rRNA inh | Ecoli rRNA inh OD600 | Ecoli rRNA inh RFP | MLL AF4-AF9 inh | FGF22 binding | RanGTP-Impb inh | T cruzi inh | Beta cell apopt | Calb FLC
Cc1ccc2nc(-c3ccc(NC(=S)NCCC(C)C)cc3)sc2c1 | 4 | / | / | / | / | / | 0.8 | 0 | 0 | 0
CCN(CC)S(=O)(=O)c1ccc(/C=C/C(=O)OCC(=O)N(C)C)cc1 | 1 | 11 | 11 | -2.1 | -0.6 | i | / | / | -1 | -5
COc1ccc(S(=O)(=O)Nc2cccc(SC)c2)cc1C(=O)N1CCOCC1 | -12 | 1 | -8 | -5.1 | -3.9 | i | 1.2 | 4 | -5 | -6
CC(=O)Nc1ccc(NC2=CC(=O)c3ccccc3C2=O)cc1 | -9 | 1 | 6 | 3.5 | -0.7 | i | -2.8 | 5 | 18 | -7
O=C1c2ccccc2C(=O)c2c(Nc3ccc(CCO)cc3)ccc(O)c21 | -1 | 12 | 2 | -2.2 | 50* | i | 9.7 | -1 | 22 | -5
Cc1cc(C)c(-c2cc(NC(=O)CSc3nncn3C)n(-c3ccccc3)n2)cc1C | 11 | -5 | -18 | 2.7 | / | / | 0.5 | -7 | 2 | -4
O=C(OCC(=O)N1CCN(S(=O)(=O)c2ccccc2)CC1)c1ccc([N+](=O)[O-])o1 | -38 | 16 | 20 | 1.7 | -0.1 | i | -2.5 | 4 | 2 | -20
O=C(CSCc1ccccc1Cl)Nc1ccc(C(=O)O)cc1 | 14 | -5 | -2 | -2.4 | -7.7 | i | -1.9 | -9 | 1 | 4
Cc1onc(-c2c(Cl)cccc2Cl)c1C(=O)NC(C)(C)CO | 0 | / | / | / | / | / | 3.0 | -13 | -5 | 5
COCCN1CC(=O)N2C(c3cccc(OC)c3)c3[nH]c4ccccc4c3C[C@H]2C1=O (stereo not given in full) | 99* | -4 | -1 | 3.3 | -14 | i | 2.7 | -11 | -7 | -2
CC(C)NC(=O)c1cc2c(C(F)(F)F)nn(C)c2s1 | -15 | / | / | / | / | / | -2.3 | -6 | -2 | -6
Cc1ccc(CNC(=O)CCn2cc(-c3ccc(F)cc3)nc2-c2ccncc2)cc1 | 70 | -6 | 0 | -6.9 | 7.5 | i | / | / | -11 | /
O=S(=O)(NCC(c1ccco1)N1CCc2ccccc2C1)c1ccc(Br)cc1 (stereo not given) | -3 | 5 | -25 | 0.6 | -3.6 | i | -2.7 | 28 | -3 | 1
CN(C)CCCNCCCNC(=O)/C(=N\O)c1ccccn1 | 5 | / | / | / | / | / | -0.9 | -4 | -3 | -3
O=C(Nc1cccc([N+](=O)[O-])c1)Nc1cccs1 | 8 | -10 | -3 | 6.6 | 8.4 | i | ? | 34 | 16 | 64
Cc1ccc(/C=N/NC(=O)Cc2ccc(Cl)cc2)s1 | 6 | 5 | 3 | -0.1 | -2.7 | i | ? | -11 | -5 | 3
Cn1c(N2CCN(c3ccccn3)CC2)nc2c1c(=O)n(Cc1ccccc1Cl)c(=O)n2C | / | / | / | / | / | / | 5.1 | 4 | 4 | 1
O=C(Nc1ccc(C(F)(F)F)cc1)c1ccccc1 | -3 | 0 | 8 | 5.9 | 1.0 | i | / | / | -2 | /
CCCn1c(N)c(N(CCOC)C(=O)CSc2c(Cl)cccc2Cl)c(=O)[nH]c1=O | 2 | 14 | 9 | 0.8 | 0.3 | i | / | / | 7 | /
CCn1cc(C2=NC(CCSC)CO2)c2ccccc21 (stereo not given) | 2 | 0 | 7 | 1.1 | 3.5 | i | -8.1 | -9 | -1 | -7
Cc1ccc(CNC(=O)CSc2nnc3c(n2)[nH]c2ccccc23)cc1 | -2 | 9 | 9 | -1.7 | -0.2 | i | 1.8 | -3 | 6 | -2
O=[N+]([O-])c1cc([N+](=O)[O-])c2cc3ccccc3nc2c1 | -19 | 16 | 18 | 2.7 | 7.3 | i | -4.8 | 10 | 5 | 42
COc1ccccc1N(CCC#N)C(=O)COC(=O)CCC(=O)c1ccc(F)cc1 | 1 | 0 | 0 | 0.0 | 1.0 | i | / | / | -4 | /
Cc1sc2nc(CN3CCN(c4ccc(O)cc4)CC3)[nH]c(=O)c2c1C | / | 7 | 13 | 2.2 | 7.2 | i | ? | -3 | -5 | -15
CCCC(=O)Nc1ccc(Cl)c(NC(=O)c2ccc([N+](=O)[O-])cc2Cl)c1 | -14 | / | / | / | / | / | -3.4 | 38 | 2 | 1
Cc1ccc(C)n1CCN1CCN(CC(=O)Nc2ccc(S(N)(=O)=O)cc2)CC1 | 11 | / | / | / | / | / | 0.7 | -7 | -8 | -1
CCCC(=O)Nc1ccc(Cl)c(NC(=O)c2cccnc2)c1 | -3 | -1 | 4 | -1.3 | 0.5 | i | -0.3 | -6 | -2 | -15
CCOC(=O)c1cnc(SCC(=O)OCC(=O)NC2CCS(=O)(=O)C2)nc1N (stereo not given) | 6 | 1 | 2 | 0.9 | -21 | i | 6.1 | 1 | -2 | 3
Cc1cc2ccc(C)c(C)c2nc1SCC(=O)c1cccs1 | / | / | / | / | / | / | 4.2 | 25 | -5 | 15
O=C(CCN1C(=O)/C(=C\c2cccc(Br)c2)SC1=S)N1CCOCC1 | 10 | 14 | 9 | -0.5 | -1.9 | i | 8.1 | -21 | -40 | 10
Cc1ccccc1OCCCN1CCOCC1 | 14 | 3 | 9 | -1.8 | -7.1 | i | ? | 5 | 4 | -2
CSc1nnc2c3ccccc3n(Cc3ccccc3)c2n1 | -2 | / | / | / | / | / | -5.8 | -13 | 5 | -6
Cc1ccc(-c2noc(CN(C)C(=O)c3ccc(Br)o3)n2)cc1 | 1 | -15 | -26 | -0.5 | -0.4 | / | 6.7 | 20 | / | -15
Cc1[nH]nc(-c2ccc(O)cc2O)c1-c1ccc(Cl)cc1 | 82* | / | / | / | / | / | 0.4 | 4 | 5 | -29
COc1ccc(-c2nc(CN3CCN(Cc4cccc(F)c4)CC3)c(C)o2)cc1 | / | -11 | -7 | 5.3 | 7.9 | i | -0.6 | 50 | 1 | -5
CCc1cc2c(=O)c(-c3nc4ccccc4n3C)c(COCC(=O)O)oc2cc1O | -64 | -7 | -3 | 4.0 | -2.8 | i | ? | -14 | 3 | 13
Cc1cc(C)c(S(=O)(=O)NC2CC(C)(C)NC(C)(C)C2)cc1C | 4 | 8 | 5 | 4.9 | -1.2 | i | 3.5 | 1 | -10 | -13
CCCCOC(=O)c1ccc(N/C(=N\S(=O)(=O)c2ccccc2)c2ccccc2)cc1 | 1 | -6 | 2 | -9.5 | 0.6 | i | 1.3 | 20 | -3 | 23
COc1ccc(C2=NS(=O)(=O)N(C)C(C(=O)NCc3ccc(F)cc3)=C2)cc1OC | 1 | -7 | -9 | 3.4 | -2.8 | i | 0.0 | 5 | -2 | -3
CN(C)Cc1cnc2ccc(Cl)cn12 | -2 | / | / | / | / | / | 1.5 | -7 | -6 | -3

Record cards (already shown). Order of values: ALR inh, Ecoli rRNA inh, Ecoli rRNA inh OD600, Ecoli rRNA inh RFP, MLL AF4-AF9 inh, FGF22 binding, RanGTP-Impb inh, T cruzi inh, Beta cell apopt, Calb FLC
CCCC(=O)Nc1ccc(Cl)c(NC(=O)c2cccnc2)c1 across the screens: -3, -1, 4, -1.3, 0.5, i, -0.3, -6, -2, -15
Cc1cc(C)c(S(=O)(=O)NC2CC(C)(C)NC(C)(C)C2)cc1C across the screens: 4, 8, 5, 4.9, -1.2, i, 3.5, 1, -10, -13
COc1ccc(S(=O)(=O)Nc2cccc(SC)c2)cc1C(=O)N1CCOCC1 across the screens: -12, 1, -8, -5.1, -3.9, i, 1.2, 4, -5, -6
CSc1nnc2c3ccccc3n(Cc3ccccc3)c2n1 across the screens: -2, /, /, /, /, /, -5.8, -13, 5, -6
CCCC(=O)Nc1ccc(Cl)c(NC(=O)c2ccc([N+](=O)[O-])cc2Cl)c1 across the screens: -14, /, /, /, /, /, -3.4, 38, 2, 1

Later entries
SMILES | ALR inh | Ecoli rRNA inh | Ecoli rRNA inh OD600 | Ecoli rRNA inh RFP | MLL AF4-AF9 inh | FGF22 binding | RanGTP-Impb inh | T cruzi inh | Beta cell apopt | Calb FLC
COc1cc(C)ccc1OCCOCCOc1c(C)cc(C)cc1Br | -48 | / | / | / | / | / | -2.6 | / | -6 | 0
O=c1[nH]c2ccc(NC(=S)NCCc3ccccc3)cc2[nH]1 | ? | 9 | 0 | 0.3 | -1.2 | i | 3.5 | -1 | -5 | 5
COc1cc(/C=C/C(=O)N[C@@H](Cc2c[nH]c3ccccc23)C(=O)O)ccc1O | 86* | 2 | 5 | 1.0 | 5.4 | i | 2.6 | -21 | -3 | -4
COc1cc(OC)cc(-c2nc(-c3ccccc3)no2)c1 | -6 | / | / | / | / | / | -1.3 | 10 | -5 | -6
O=C(N/N=C/c1ccccc1C(=O)O)c1cc(-c2ccc3c4c(cccc24)CC3)n[nH]1 | 39 | -4 | 5 | 8.1 | -0.6 | i | 2.2 | -22 | -15 | -1
Cc1ccccc1NC(=S)NCCc1c[nH]c2ccccc12 | 29 | -24* | -2.5* | -2.1* | 10 | i | -2.9 | -9 | -2 | ?
CCCC(=O)NC(c1ccco1)c1cc([N+](=O)[O-])c2cccnc2c1O (stereo not given) | 3 | -45 | -75 | -12 | -15 | i | -2.9 | -13 | -8 | 109*
CCN(CC(=O)Nc1ccccc1OC)C(=O)c1ccc(NC(=O)c2cccs2)cc1 | 50 | -13 | -22 | 0.1 | -1.3 | i | / | / | 7 | /
O=C(O)Cc1ccc(O)cc1 | -7 | 8 | 7 | -3.5 | -18 | i | 6.8 | -12 | -1 | 17
c1cnc(N2CCN(Cc3ccc4c(c3)OCO4)CC2)cn1 | -15 | 12 | 0 | -1.6 | 5.0 | i | -1.0 | -6 | -18 | -6
C[C@H](CO)N1C[C@H](C)[C@@H](CN(C)C(=O)Nc2ccccc2)Oc2ccc(NC(=O)Cn3cnnn3)cc2C1=O | / | 3&7 | 15&14 | -0.5&3.0 | -2.1&1.5 | i | / | / | -10 | /
COc1ccc(CCNC(=O)CCCOc2ccc(C)cc2)cc1OC | / | / | / | / | / | / | 1.0 | -9 | -2 | 9
O=C1CCCC(O)=C1N=Nc1ccc2ncsc2c1 | 97* | 3 | 9 | 3.2 | 2.4 | i | -1.8 | -7 | 2 | 4
CCOc1cc(CN2CCCCCC2)ccc1OC | / | 2 | 6 | 2.1 | -3.6 | i | 1.7 | 14 | -3 | -3
CC(NC(=O)OC1CCCCC1)N1C(=O)C2C3C=CC(C3)C2C1=O (stereo not given) | -1 | / | / | / | / | / | -0.4 | 1 | -3 | -7
COc1ccc(S(=O)(=O)N2CCCN(Cc3cccc(F)c3)CC2)cc1 | -10 | / | / | / | / | / | -0.2 | -20 | 0 | 8
